INS promoter inh – TRM-6 insulin promoter activity inhibition | TRM-6 cells (human fetal islet line), insulin promoter-eGFP reporter, imaging; reporter expression induced with tamoxifen | inhibition, % at 2 µM | 130,000 tested, 0.9% active;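 active means inhibition above the mean plus 3 SD, with well images judged a real hit on visual review, cut at about 60% in these data, passing the limit was not always enough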
HSV replic up – HSV replication enhancement. HSV replication augmentation in cells, fold increase. maximum fold increase. 220,000 tested, 0.005% active;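 active means peak rise of 1.5-fold or more in the series; tested in PC3 cells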;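 further: first round at 10 µM; read as green reporter fluorescence; hits show the peak of a series up to 25 µM; 1 = signal of infected wells without compound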
PKD1 inh – inhibitors of human PKD1 kinase; Q15139; PKD1 kinase fluorescence polarization assay; inhibition, %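 (about 10 µM by stock and volumes)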; 200,000 tested, 0.056% active;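 active means inhibition of 50% or more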;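 further: controls were vehicle for no effect and a reference inhibitor for full effect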
Target sequence (Q15139 whole entry, looked up): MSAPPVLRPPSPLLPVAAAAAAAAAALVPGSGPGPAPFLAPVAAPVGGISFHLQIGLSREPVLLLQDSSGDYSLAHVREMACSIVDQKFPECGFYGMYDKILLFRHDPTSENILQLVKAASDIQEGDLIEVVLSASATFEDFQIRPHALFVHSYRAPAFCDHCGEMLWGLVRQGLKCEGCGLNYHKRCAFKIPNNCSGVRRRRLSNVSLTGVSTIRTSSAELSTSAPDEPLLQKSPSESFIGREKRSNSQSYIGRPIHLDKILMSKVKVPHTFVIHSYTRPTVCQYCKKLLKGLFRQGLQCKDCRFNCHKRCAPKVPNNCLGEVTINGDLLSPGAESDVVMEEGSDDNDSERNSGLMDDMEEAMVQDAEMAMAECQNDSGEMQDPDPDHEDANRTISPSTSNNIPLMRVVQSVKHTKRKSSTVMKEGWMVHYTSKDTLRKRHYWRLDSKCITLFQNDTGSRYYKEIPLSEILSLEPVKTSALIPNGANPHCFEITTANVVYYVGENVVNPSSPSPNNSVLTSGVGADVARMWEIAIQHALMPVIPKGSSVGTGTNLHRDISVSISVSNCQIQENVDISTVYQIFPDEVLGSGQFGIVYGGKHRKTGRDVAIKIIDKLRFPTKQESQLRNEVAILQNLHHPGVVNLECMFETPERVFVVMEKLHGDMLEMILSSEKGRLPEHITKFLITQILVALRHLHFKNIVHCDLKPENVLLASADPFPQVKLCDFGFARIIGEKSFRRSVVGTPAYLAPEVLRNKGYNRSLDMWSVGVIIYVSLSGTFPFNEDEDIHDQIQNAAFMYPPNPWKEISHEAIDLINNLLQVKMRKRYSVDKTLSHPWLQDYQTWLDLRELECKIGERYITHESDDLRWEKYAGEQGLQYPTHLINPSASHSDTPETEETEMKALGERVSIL
GALR2 agonist – activates the human galanin receptor 2 | GALR2-expressing cells, agonist activation read-out | activation, %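 (tested at 5 µM)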 | 140,000 tested, 0.48% active | O43603;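 active means above mean plus 3 SD of all compounds, about 5% in these data, not always enough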;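 further: 0% = vehicle buffer wells and 100% = reference agonist at full effect; tested in CHO reporter cells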
RGS16-Gao HTS – modulates binding between human RGS16 and Galphao. O15492+P09471. bead-based flow cytometry RGS16-Galphao binding, fluorescence; actives lie on both sides. binding response (% of control), % at 10 µM. 220,000 tested, 0.38% active. AID 1441;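 active means below 25% or above 175%, edge rows of some plates excepted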;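 further: Galphao activated by GDP with aluminum fluoride before binding; 100% = wells without compound and 0% = beads without RGS; some results beyond the cut were filed as inactive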
INS promoter inh cell count – second read-out of INS promoter inh, no call of its own (marks repeat the call); normalized cell count, %; measured here: cell count, toxicity; reference of the scale not given here;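 cells exposed to compound for 48 h; stained nuclei by imaging scaled within each plate; lower means fewer cells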
HSV replic up primary fold – recorded beside HSV replic up, whose call it bears; fold increase; compound at 10 µM; measured here: primary screen fold increase 10 uM; tested in PC3 cells;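 GFP signal in the first replicate; 1 = infected wells without compound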
Active calls of the source: *; i = inactive; . = no result given.

SMILES	INS promoter inh	INS promoter inh cell count	HSV replic up	HSV replic up primary fold	PKD1 inh	GALR2 agonist	RGS16-Gao HTS
CCN1CCN(CC(=O)Nc2ccc3c(c2)OCCO3)C(=O)C1=O	.	.	i	0.92	-3	-3.5	105
CC(C)[C@H](NS(=O)(=O)c1ccccc1)C(=O)OCC(=O)N1N=C(c2ccc(Cl)cc2)CC1c1ccco1 (some centres undefined)	19	122	i	0.67	0	-0.1	90
Cn1ncc2c(Nc3ccccc3Cl)nc(Nc3ccccc3Cl)nc21	.	.	i	0.9	.	.	99
O=C(Nc1ccccc1)Nc1cccc(Cl)c1	28	19	i	1.1	7	-0.8	106
COC(=O)c1sc(NC(=O)c2cnccn2)c(C(=O)OC)c1C	31	106	i	0.92	1	0.5	.
CCSc1nc2c(c(=O)n1Cc1ccccc1)SC(C)C2 (centres undefined)	-429	75	i	0.72	7	-0.8	111
S=C(NCc1cccs1)Nc1ccc(Br)cc1Cl	.	.	i	0.96	4	.	102
CCCC(=O)N1c2ccccc2NC2=C(C(=O)CCC2)C1c1ccc(F)cc1 (centres undefined)	19	87	i	0.84	-6	-2.2	102
Cc1cc(C)nc(N/N=C/C2=C(O)CC(c3ccccc3)CC2=O)n1 (centres undefined)	.	.	i	0.85	.	.	97
CCn1cc([N+](=O)[O-])c(C(=O)Nc2ccn(C34CC5CC(CC(C5)C3)C4)n2)n1	8	177	i	0.93	0	-0.3	104
Cc1cc2nc(N=C(N)N)nc(C)c2cc1C	.	.	i	0.76	-9	.	105
Cc1cc(N2CC(C)OC(C)C2)nc(C(C)C)n1 (centres undefined)	.	.	i	0.96	1	.	97
ClC1=C(Cl)C(Cl)=C(Cl)C1=C/C=C/c1ccccc1	.	.	i	0.62	.	.	97
O=C(c1ccccc1)c1nn(-c2cccc(Cl)c2)ccc1=O	.	.	i	0.88	.	.	106
COc1ccc(-n2c(-c3ccc(C)cc3)n[nH]c2=S)cc1	25	134	i	0.89	-6	-0.1	101
COC(=O)c1ccc(NC(=O)c2cc3sccc3n2C)cc1	14	119	i	1.1	-7	-1.2	89
O=C1CCN(CCc2ccccc2)CCN1[C@H](CSc1ccc(Br)cc1)c1ccccc1	.	.	i	0.94	.	.	107
N#Cc1nc(-c2ccc(Cl)cc2)oc1NCc1cccc2c1OCO2	69	120	i	0.96	1	-0.2	103
Cc1cccc(Oc2cc(NC(=O)c3ccccc3)cc([N+](=O)[O-])c2)c1	0	103	i	1.1	-1	-1.9	101
CCOC(=O)c1c(NC(=O)CSc2nnc3ccccn23)sc2c1CCC2	20	120	i	0.96	-7	-0.2	100
O=C(NCCN1C(=O)S/C(=C\c2ccc(Cl)c(Cl)c2)C1=O)C1COc2ccccc2O1 (centres undefined)	-5	85	i	0.95	4	.	107
Cc1ccc2nc(SCc3ccccc3)c(C=O)c(=O)n2c1	8	156	i	0.92	-9	-1.0	101
CCN1N=C(C)C=C(c2ccccc2)n2c1nc1ccccc12	.	.	i	1	.	.	98
CCNCCNC(=O)c1c(O)c2c([nH]c1=O)CCCC2	16	124	i	0.87	1	-0.1	115

Single records, from the list above. Screens in order: INS promoter inh, INS promoter inh cell count, HSV replic up, HSV replic up primary fold, PKD1 inh, GALR2 agonist, RGS16-Gao HTS
Entry for Cc1ccc2nc(SCc3ccccc3)c(C=O)c(=O)n2c1 → 8, 156, i, 0.92, -9, -1.0, 101
Entry for COC(=O)c1ccc(NC(=O)c2cc3sccc3n2C)cc1 → 14, 119, i, 1.1, -7, -1.2, 89
Entry for O=C(c1ccccc1)c1nn(-c2cccc(Cl)c2)ccc1=O → ., ., i, 0.88, ., ., 106
Entry for ClC1=C(Cl)C(Cl)=C(Cl)C1=C/C=C/c1ccccc1 → ., ., i, 0.62, ., ., 97

New compounds follow.
SMILES	INS promoter inh	INS promoter inh cell count	HSV replic up	HSV replic up primary fold	PKD1 inh	GALR2 agonist	RGS16-Gao HTS
Cc1ccc(OCC(O)CN2C(=O)NC(C)(C)C2=O)cc1C (centres undefined)	.	.	i	0.89	-2	-1.3	100
COc1ccc(CNC(=O)CN(C(=O)Cn2nnc(-c3ccccc3F)n2)c2ccc(C)cc2)cc1	.	.	i	1.1	-2	.	106
Cc1cc(C(=O)N2CCN(Cc3ccc4c(c3)OCO4)CC2)on1	.	.	i	0.96	-2	-0.5	101
COC(=O)c1cc(OC)c(OC)cc1NCC(=O)Nc1ccc(C)cc1	.	.	i	1	-8	-0.1	101
CCNC(=O)COc1cc(C)c(Cl)c(C)c1	6	49	i	0.94	-9	-1.9	103
O=C(COC(=O)c1ccco1)NC(c1ccccc1)c1ccccc1	10	76	i	1	14	.	96
Cc1ccc(-n2[nH]c(C)c(C=Nc3ccc(S(=O)(=O)Nc4nccs4)cc3)c2=O)cc1	.	.	i	1.1	12	0.2	112
COc1ccccc1N1CCN(C/C(C)=C/c2ccccc2)CC1	0	81	i	1.2	-13	0.0	100
O=C(COC(=O)CNC(=O)c1ccccc1)Nc1ccc(Cl)cc1C(F)(F)F	-47	63	i	1	12	0.0	114
c1cnc2c(OCc3nc4ccccc4[nH]3)cccc2c1	-111	104	i	0.92	-6	-2.2	111
COc1cccc(C2NC(C)(C(=O)O)C3C(=O)N(C(C)C)C(=O)C23)c1O (centres undefined)	.	.	i	0.9	1	-1.3	95
CCN(CC)c1ccc(/C=N/NC(=O)c2cccc(S(=O)(=O)Nc3ccccc3OC)c2)cc1	-12	148	i	0.84	-5	.	99

An excerpt from above, limited to HSV replic up:
smiles	HSV replic up
COC(=O)c1cc(OC)c(OC)cc1NCC(=O)Nc1ccc(C)cc1	i
CCNC(=O)COc1cc(C)c(Cl)c(C)c1	i
O=C(COC(=O)c1ccco1)NC(c1ccccc1)c1ccccc1	i
Cc1ccc(-n2[nH]c(C)c(C=Nc3ccc(S(=O)(=O)Nc4nccs4)cc3)c2=O)cc1	i

(further entries)
SMILES	INS promoter inh	INS promoter inh cell count	HSV replic up	HSV replic up primary fold	PKD1 inh	GALR2 agonist	RGS16-Gao HTS
Nc1ncc(Br)cc1S(=O)(=O)NCCC(=O)N1CCN(c2ncccn2)CC1	-57	122	i	0.89	5	-2.5	97
Cc1ccc(NC(=O)CN(C)C(=O)COc2c(Cl)cc(Cl)c3ccc(C)nc23)cc1	.	.	i	0.85	-5	-0.8	107
CC1CN(C(=O)c2cccc(S(=O)(=O)Nc3ccc(Cl)cc3)c2)CC(C)O1 (centres undefined)	.	.	i	0.77	0	.	101
O=C(COC(=O)c1cc(=O)c2ccccc2o1)NC1CCCC1	33	181	i	0.93	-7	.	106
O=C(CCl)Nc1cccc(S(=O)(=O)NC2=NCCC2)c1	.	.	i	0.75	.	.	104
COc1ccc(CCNc2nc3c(c(=O)n(C)c(=O)n3C)n2C)cc1OC	-363	65	i	0.68	-5	-2.5	105
CC1CN(C(=O)c2ccccc2Sc2ccccc2C#N)CC(C)O1 (centres undefined)	19	56	i	0.92	-5	-0.4	99
O=C(CSc1ccc(Cl)cc1)Nc1ccc(N2CCN(c3ccccc3)CC2)c(F)c1	-56	46	i	0.94	6	1.5	77
O=C(NC(=S)NC1CCSC1=O)c1ccccc1F (centres undefined)	15	78	.	.	-15	-2.4	98
COc1ccc(OC)c(NC(=O)CC2C(=O)NCCN2C(=O)Nc2cccc(Cl)c2)c1 (centres undefined)	-7	38	i	0.83	-3	0.1	94
COc1ccc(CC(=O)Nc2cccc(-c3cn4ccccc4n3)c2)cc1	27	115	i	0.74	-2	0.0	108
COc1ccccc1NC(=O)N1CCCC(C(=O)Nc2cccc(C)c2C)C1 (centres undefined)	6	118	i	1	-5	-1.2	136
Cn1ncc2c(NNC(=O)c3ccc(Cl)c(Cl)c3)ncnc21	.	.	i	1.1	-7	-0.3	39
CN(C)CCCN1C(=O)CSC1c1ccc([N+](=O)[O-])cc1 (centres undefined)	.	.	i	0.98	3	.	102
Cc1cccnc1NCc1ccc(O)c2ncccc12	46	147	i	0.97	3	-1.1	104
Oc1c(C(Nc2cccc(C(F)(F)F)c2)c2ccncc2)ccc2cccnc12 (centres undefined)	.	.	i	0.93	-3	.	100
COc1ccccc1C(=O)NNC1=C(C(=O)C(F)(F)F)CCC1	-17	90	i	0.84	-6	-2.8	100
Cc1cccc(C(=O)NCc2nnc(SCC(=O)N3CCN(c4ccccc4)CC3)n2C)c1	2	119	i	0.89	-6	-0.8	.
O=C(NNC(=O)c1ccccc1[N+](=O)[O-])c1ccccn1	.	.	i	1.1	-8	.	119
N#Cc1nc(-c2ccccc2F)oc1NC1CCCCC1	.	.	i	1	-14	-0.7	102
O=C1OC(c2ccc(Br)cc2)=N/C1=C\N1CCCCC1	-22	48	i	1	-1	-1.6	113
COC(=O)C1=C(CSc2nc3ccccc3o2)NC(=O)NC1c1cc(C)ccc1C (centres undefined)	29	123	i	0.84	-12	0.0	109
C/C(=C\c1ccc2c(c1)OCO2)C(=O)c1c(C)cc(C)[nH]c1=O	43	107	i	0.97	-4	.	113
CC(=O)OCC1OC(OC(C)=O)C(NC(=O)c2cccnc2)C(OC(C)=O)C1OC(C)=O (centres undefined)	.	.	i	0.87	-8	-0.5	107

Individual results from the list.
Cn1ncc2c(NNC(=O)c3ccc(Cl)c(Cl)c3)ncnc21 | HSV replic up primary fold = 1.1
CC(=O)OCC1OC(OC(C)=O)C(NC(=O)c2cccnc2)C(OC(C)=O)C1OC(C)=O (centres undefined) | RGS16-Gao HTS = 107
COc1ccccc1C(=O)NNC1=C(C(=O)C(F)(F)F)CCC1 | HSV replic up primary fold = 0.84
N#Cc1nc(-c2ccccc2F)oc1NC1CCCCC1 | RGS16-Gao HTS = 102

Further records follow.
SMILES	INS promoter inh	INS promoter inh cell count	HSV replic up	HSV replic up primary fold	PKD1 inh	GALR2 agonist	RGS16-Gao HTS
CC(=O)Nc1cccc(NC(=O)CS(=O)(=O)c2cn(CC(=O)N3CCOCC3)c3ccccc23)c1	.	.	i	0.81	3	.	103
COC(=O)c1cccc(NC(=O)Cc2ccc(OC)cc2)c1C	36	146	i	1	-2	-1.2	98
CCCCc1c(O)nc(SCC(=O)N2CCCCC2)n(-c2ccccc2C)c1=O	.	.	i	0.94	1	-2.9	98
O=C(O)Cc1ccc(NC(=O)c2ccc(NC(=O)c3ccco3)cc2)cc1	-35	108	i	0.94	-7	-0.1	102
CCOC(=O)CSc1nnc2n1C(C)(C)Cc1ccccc1-2	34	91	i	0.98	-8	0.0	99
O=C(Nc1nnc(C2CC2)s1)C1COc2ccccc2O1 (centres undefined)	0	125	i	0.91	-5	.	108
Cc1ccc(C)c(NC(=O)CSc2nc3c(c(=O)n2C)SC(C)C3)c1 (centres undefined)	.	.	i	0.98	-8	-0.8	106
CCCCN1C(=O)c2ccccc2C1C(=O)NC1CCCC1 (centres undefined)	36	133	i	1	14	-1.9	107
CCOC(=S)SCc1cn2ccccc2n1	-9	135	i	1.1	-1	.	103
CCOc1ccc(-n2c(N)c(C(=O)NCc3ccco3)sc2=S)cc1	-21	140	i	0.89	2	-1.3	81
CCOC(=O)C1CCCN(S(=O)(=O)Cc2ccccc2)C1 (centres undefined)	-57	105	i	0.89	-2	1.9	100
Cc1ccc2[nH]c3c(=S)nc[nH]c3c2c1	78*	146*	i	1	-17	0.0	104
CC(C)c1ccc(NC(=S)NNC(=O)c2cccnc2)cc1	.	.	i	0.88	-5	.	105
CCOC(=O)C(C)Sc1cnccn1 (centres undefined)	.	.	i	0.99	-4	.	97
CNc1cc([N+](=O)[O-])ccc1N/C=C/C(=O)c1cccs1	60	67	i	0.99	-8	-5.0	98
CCCCNC(=O)CCCCCNS(=O)(=O)c1ccc(OC)cc1	.	.	i	1.1	7	-2.2	114
O=C(CCn1c(=S)[nH]c2ccccc2c1=O)NCCCN1CCCC1=O	.	.	i	0.76	2	-0.4	99
CC(=O)c1ccc(NC2OC(CO)C(O)C(O)C2O)cc1 (centres undefined)	-3	107	i	0.81	-1	-0.8	93
COc1cccc(CNc2nn[nH]n2)c1OC	6	115	i	0.9	1	-0.9	108
COc1cc(NC(=O)CCc2ccccc2)nc(OC)n1	57	132	i	0.93	-17	-5.3	86
Cc1cc(C)c(OCCOCCN(C)C)c(Br)c1	3	107	i	0.96	0	-0.3	106
CNCc1cc(Br)c(OCC(=O)Nc2ccccc2OC)c(OC)c1	-24	119	i	0.79	-8	.	102
CCC(=O)Nc1ccc(C(=O)Nc2c[nH]c(=O)[nH]c2=O)cc1	-19	112	i	0.98	0	.	99
O=C(CCNC(=O)c1ccco1)Nc1ccccc1N1CCOCC1	9	88	i	0.98	6	.	96
O=C(O)c1cc(Cl)nc2ccccc12	.	.	i	0.87	.	.	100
CCCCCC(=O)N1CCN(CCN=CC2=C(O)CC(c3cccs3)CC2=O)CC1 (centres undefined)	-13	95	i	1	-9	-2.0	101
CN1CCN(c2nc3c(c(=O)[nH]c(=O)n3C)n2Cc2cccc3ccccc23)CC1	31	64	i	0.9	4	-1.8	100
Cc1ccc(C2CC(=O)NC(SCc3ccccc3)=C2C#N)o1 (centres undefined)	.	.	i	0.94	-22	-1.4	96

Source: PubChem
